Screening data (PubChem)
Autofluor counter: flagged as autofluorescent in microsphere protease counterscreen | compound autofluorescence counterscreen, microsphere flow cytometry; hits give high values | hit rate 3.1% among 360,000 | fluorescence intensity (test concentration not listed) | AID 624483;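 active = at least 3 SD above the mean of all compounds, about 16000 in these data; inconclusive = too few beads counted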;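 also: 100 nL of 1 mM stock went into each well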
Sa RN4220 lethal: S. aureus RN4220 growth inhibition; OD600, 16 h; inhibition, % (no concentration beside the values); hit rate 0.33% among 330,000;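 active = z-score of -3 or lower and OD600 up to 0.18 on both plates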;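 also: plate controls were untreated cells for no effect and reference antibiotic for full effect; stock transfer was 100 nL into about 80 µL; one replicate is shown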
PrP 5UTR inh: inhibition of PrP 5' UTR reporter expression; cell-based PrP 5' UTR mRNA reporter, plate reader; inhibition, % (no concentration beside the values); hit rate 0.35% among 340,000; AID 488862;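 active = every replicate at 50% or more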;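 also: 0 = median of the neutral control wells; tested in H4 reporter cells; numbers are from one replicate; inactives centre near -14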
Sa ugtP lethal: growth inhibition of S. aureus ugtP deletion strain; S. aureus RN4220 ugtP deletion, OD600 growth, 16 h; some inactives read as strong as hits; growth inhibition, % (no concentration beside the values); hit rate 0.54% among 330,000;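 active = z-score under -3 and OD600 up to 0.15 on both plates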;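 also: plate controls were untreated wells for no effect and antibiotic for full effect; wells of about 80 µL received 100 nL stock; the first replicate is given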
Mtb hypoxia inh: Mtb hypoxia fluorescent reporter inhibition; fluorescence inhibition, % (concentration not given with the values); M. tuberculosis hypoxia-regulated fluorescent reporter, fluorescence; AID 1159583; hit rate 0.1% among 300,000;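 active = 35 to 45% if threefold the growth effect, above 45% if 1.5-fold the growth effect; inactive = the rest, general growth blockers included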;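 also: wells of about 50 µL received 100 nL stock; 0% = vehicle wells and 100% = reference inhibitor wells; whole bacteria with a GFP reporter of the hypoxia response; strong numbers were not always called active; many hits fall short of the cut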
BJeLR lethal: BJeLR cell viability loss. AID 1554. inhibition, % (concentration not given with the values). hit rate 0.17% among 300,000. BJeLR (HRASV12) viability, CellTiter-Glo ATP luminescence, 48 h; reference of the scale not given here;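 active = replicate mean above 50%; inconclusive = above 50% but judged a plate artefact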;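 also: 50 nL library stock added to about 25 µL; numbers are from one replicate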
Mtb hypoxia inh growth: recorded beside Mtb hypoxia inh, whose call it bears; growth inhibition, %; measured here: M. tuberculosis growth (absorbance);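 0% = vehicle and 100% = reference antibiotic; read after six days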
The depositor's hits bear a star; ? = inconclusive; nt = no result given; & = joins results of further samples.

Compound	Mtb hypoxia inh growth	Sa ugtP lethal	Mtb hypoxia inh	PrP 5UTR inh	BJeLR lethal	Sa RN4220 lethal	Autofluor counter
CCOC(=O)c1cc(C(=O)OCC)c2cccc(C)n2c1=O	nt	-7	nt	8	0	7.8	2663
Cn1c(NCc2ccco2)nc2c1c(=O)n(Cc1ccc(Cl)cc1Cl)c(=O)n2C	6	-22	11	-22	-4	-2.3	5797
Cc1cc2ccccc2n1CCNC(=O)C(C)C	0	-7	-3	31	4	0.0	3584
CCOC(=O)/C(=C/c1ccc(N2CCC(c3ccccc3)=N2)cc1)C(C)=O	5	15	-8	-9	1	9.6	4562
Cc1cc(C(=O)OCC(=O)NCc2ccccc2Cl)c(C)o1	4	-17	-9	39	8	-2.0	4615
COc1ccccc1Oc1nc2ccccn2c(=O)c1/C=C(\C#N)C(=O)Nc1c(C)n(C)n(-c2ccccc2)c1=O	7	5	7	-11	-1	2.4	3811
CC(C)CN(C(=O)CCc1ccccc1Cl)c1c(N)n(Cc2ccccc2)c(=O)[nH]c1=O	4	-1	6	-11	1	5.2	5767
Cc1cc(C(=O)N2CCCC(CO)(Cc3ccc(F)cc3)C2)c(C)o1 (stereo not given)	2	4	-2	-21	6	0.9	6310
Cc1nc2c3cc(F)ccc3n(Cc3ccc(F)cc3)c2s1	-2	-3	-2	-14	-4	1.9	2055
CCCCCCCC(=O)NNC(=O)c1c(O)c2ccccc2[nH]c1=O	8	3	1	-16	8	3.3	4713
O=C(Nc1ccc(S(=O)(=O)Nc2ccccc2)cc1)C1COc2ccccc2O1 (stereo not given)	6	-23	-1	-17	0	-3.5	10845
CC(=NOCC(=O)Nc1cc(C)cc(C)c1)c1ccc2c(c1)OCCO2	10	16	12	nt	nt	-2.7	nt
CCN1C(=O)C(F)(CC)C(=O)c2ccccc21 (stereo not given)	-1	10	9	-18	10	-0.6	2523
Cc1nc2c3ccccc3nc(NNC(=O)CCC(=O)N3CCN(c4ccc(F)cc4)CC3)n2n1	7	-6	-5	1	6	-1.8	5412
CCCCc1c(C)nc2nc(SCc3ccc(Cl)cc3)[nH]n2c1=O	-1	-8	1	-15	9	6.7	3945
CCc1cccc2c(C(=O)CSc3nnc(C4CC4)o3)c[nH]c12	17	-16	12	-11	nt	5.8	5059
CCOC(=O)c1ccc2c(c1)N(C)C(=O)c1ccccc1S2	9	2	-1	-10	3	-1.0	3562
Cc1c(Cl)cccc1NC(=O)Nc1ccccc1C(N)=O	9	1	14	-3	1	0.4	3481
CN(C)S(=O)(=O)c1ccc(C(=O)NCCC(=O)N2CCCC2)cc1	7	7	11	-30	0	5.0	5063
CCC1=NC(c2ccc(Br)cc2)N(O)C1(C)C (stereo not given)	-1	5	10	-10	1	5.3	2963
CC1CCC(=O)N(CC(C)CC#N)CC1 (stereo not given)	4	2	-1	nt	nt	6.4	nt
Cc1ccc(CN(C)C(=O)c2c(C)nn(-c3ccccc3)c2C)cc1	8	-2	15	-25	-9	-3.9	3483
CC(=O)Cc1nsc(NC(=O)c2ccc(COc3ccccc3)o2)n1	6	11	6	-16	5	0.6	nt
Nc1nnc(SCCCC(=O)c2ccc(Br)cc2)s1	-15	6	-18	-4	3	1.7	1971
O=C(NCc1cccnc1)C1CC(=O)N(c2ccc(Cl)cc2)C1 (stereo not given)	2	0	1	-12	-5	0.9	4256

Following part.
Compound	Mtb hypoxia inh growth	Sa ugtP lethal	Mtb hypoxia inh	PrP 5UTR inh	BJeLR lethal	Sa RN4220 lethal	Autofluor counter
Cc1cccc(-n2c(SCC(N)=O)nc3c(c2=O)C2(CCCCC2)Cc2ccccc2-3)c1	2	80	11	9	-1	-6.5	7067
CCN(CC(=O)N1CCCC1)S(=O)(=O)c1ccc2ccccc2c1	6	-3	10	-11	6	2.3	3674
Cc1[nH]nc2c1C(CCc1ccccc1)C(C#N)=C(N)O2 (stereo not given)	1	5	2	-9	-5	0.2	10517
CC(C)NC(=O)Nc1cccc2c1O[C@H](CN(C)C(=O)NC1CCCCC1)[C@@H](C)CN([C@H](C)CO)C2=O	-2	7	6	-4	nt	-0.5	4171
CC(C)=CCC/C(C)=C/CNC(=O)C[C@H]1C[C@H](C(=O)N2CCCCC2)[C@@]2(CCc3ccccc3)c3[nH]c4ccc(Cl)cc4c3CCN2C1=O	0	2	-8	-16	nt	1.5	4153
C[C@H]1Oc2ccccc2C(=O)C1C(=O)c1ccccc1 (stereo not given in full)	4	5	7	5	-2	1.3	4372
Cc1cc(C)c(C(=O)Nc2ccccc2)c(CC(C)(C)C(=O)O)c1	-11	5	-7	-5	-15	2.7	nt
COc1ccccc1NC(=O)N1CCc2[nH]c3ccc(Cl)cc3c2C1	nt	-21	nt	-1	8	-4.2	2290
COc1ccc(CCNC(=O)c2ccc(NC(=O)CC3SC(N4CCCC4)=NC3=O)cc2)cc1OC (stereo not given)	5	9	-2	7	nt	2.4	2917
COc1cc(NC(=O)C2CCCCC2)c2ncccc2c1	7	-4	5	-25	-14	2.7	3085
O=C(CCNS(=O)(=O)c1ccccc1)N1CCN(c2ccccc2)CC1	nt	nt	nt	-9	7	nt	4173
CC(CC(=O)N(C)CC(=O)Nc1ccc(N2CCOCC2)cc1)c1ccccc1 (stereo not given)	3	6	4	-3	8	1.3	4256
CCC1=NNC(=O)C(CC(=O)Nc2ccccc2)c2cc(OC)c(OC)cc21 (stereo not given)	7	7	1	-6	-7	-0.2	2481
CNc1nc(Oc2ccc(C(=O)OC)cc2)nc(SC)n1	3	8	17	-14	0	4.4	10333
OCCSc1nncn1/N=C/c1c[nH]c2ccccc12	nt	nt	nt	-34	-6	nt	3263
O=C(Nc1ccc(S(=O)(=O)Nc2ncccn2)cc1)c1cnc(Cl)c(Cl)c1	16	3	18	-26	-6	-1.9	4826
CC1=NN(c2ccccc2)C(=O)/C1=C\c1c(C)[nH]n(-c2ccccc2)c1=O	9	9	5	-18	-3	2.4	4209
COc1ccccc1C(=O)COC(=O)CCCN=C1NS(=O)(=O)c2ccccc21	-6	3	4	-8	-8	1.7	6256
COCCN(C(=O)COC(=O)CCC(=O)c1ccc(C)cc1)c1c(N)n(Cc2ccccc2)c(=O)[nH]c1=O	-2	11	1	4	-9	2.9	4077
O=C(COc1ccc(C=NNC(=O)c2ccccc2Br)cc1)Nc1ccccc1	-8	15	-6	nt	nt	8.6	nt
CC(=O)NCCNC(=O)c1ccc2c(c1)S(=O)(=O)c1ccccc1C2=O	0	10	-1	-10	-3	7.9	5063
Nc1c(C(=O)N2CCOCC2)sc(=S)n1-c1ccccc1	2	0	-1	-45	7	2.5	21197*
Cc1cc(NC(=O)/C=C/C(=O)N(CC(=O)NC2CCCC2)c2ccc(F)cc2)no1	3	2	12	53*	10	-1.7	3263
Cc1cc(C)c(C)c(OCC(=O)O/N=C(\N)c2ccncc2)c1	3	12	7	-20	-4	7.6	3071
CC(C=NN1CCN(Cc2ccc(C)cc2)CC1)=Cc1ccccc1	1	27	6	nt	nt	-0.8	nt

The list goes on:
Compound	Mtb hypoxia inh growth	Sa ugtP lethal	Mtb hypoxia inh	PrP 5UTR inh	BJeLR lethal	Sa RN4220 lethal	Autofluor counter
CCc1c(O)nc(SCC(=O)c2ccccc2)n(-c2ccccc2)c1=O	-4	4	-1	-24	-1	-0.4	4348
CCC(=O)c1c(O)n(C2CCCCCC2)c(=O)[nH]c1=O	11	6	11	-21	4	10	3442
CCc1nnc(NC(=S)Nc2ccccc2)s1	nt	-4	nt	-28	-8	0.2	2537
O=C(NCc1ccc(Cl)cc1)C1CCCO1 (stereo not given)	nt	1	nt	-13	0	0.5	3285
C=CCNC(=O)C1CC1(c1cccc(C)c1)c1cccc(C)c1 (stereo not given)	4	-6	9	nt	-6	2.0	4331
CCCCCCSc1ccc(-c2nc3ccccn3c2NCCCC)cc1	4	15	11	-25	5	2.6	4266
CSCCC(NC(=O)c1ccccc1Cl)C(=O)N(C)CC(=O)Nc1ccc(N2CCOCC2)cc1 (stereo not given)	-1	8	-2	-21	3	0.6	?
Oc1ccc(-c2nc3cnccn3c2Nc2ccc3c(c2)OCCO3)cc1	-2	6	6	-17	1	11	5814
C=CCn1c(SCC(=O)N2CCN(c3ccccc3)CC2)nnc1-c1ccco1	12	3	16	-23	-2	1.0	9493
Cc1cccc(C)c1OCc1cc(C(=O)N2CCC(c3ccccc3)CC2)no1	0	2	-1	-20	-5	-5.4	5680
COc1ccc(OC)c(CN2CCN(C(=O)c3cccs3)CC2)c1	2	1	1	-21	-3	-1.3	15883
Cc1ccc(C)c(N(CC(=O)NCC2CCCO2)C(=O)CCC(=O)Nc2nccs2)c1 (stereo not given)	3	10	10	-14	-4	0.2	3719
CSCCC(NC(=O)c1cc(CC(C)C)oc1C)C(=O)O (stereo not given)	nt	2	nt	-15	-2	2.1	4728
Cc1ccc(OCC(O)CN2CCN(Cc3ccc4c(c3)OCO4)CC2)c(C)c1 (stereo not given)	3&1	4&8	4&1	-12&-25	-1	5.4&11	4548&7745
O=C(NCCCn1ncc2ccccc21)c1cc(COc2c(F)cccc2F)on1	15	2	-1	-37	-2	3.9	2246
CCCCN1C(=O)C2(NNc3ccccc3O2)c2ccccc21 (stereo not given)	2	17	2	-7	-3	-4.4	12508
O=C(CSc1n[nH]c(=O)[nH]c1=O)N/N=C/C=C\c1ccccc1	nt	nt	nt	-10	3	nt	3814
CN1C(=O)c2ccccc2C(C(=O)NCCCN2CCCC2)C1c1c[nH]c2ccccc12 (stereo not given)	nt	-2	nt	5	0	-0.2	3435
O=C(N1CCOCC1)C1(S(=O)(=O)c2ccccc2)CC=CC1	nt	nt	nt	-21	-5	nt	4152
CCOC(=O)N1CCN(C(=O)COC(=O)Cc2ccc(OC)cc2)CC1	8	7	1	-21	-3	2.1	3983
Cc1ccc(NS(=O)(=O)c2ccc(Br)cc2)nc1	1	3	-1	-15	-7	-2.2	3935
O=C(NC(C1CC1)C1CC1)C1CCC(=O)N(CCCN2CCCC2=O)C1 (stereo not given)	-4	3	1	-13	2	2.2	4905
CCn1ccc(C(=O)Nc2c(C)nn(Cc3c(F)c(F)c(F)c(F)c3F)c2C)n1	-1	12	-1	-26	10	4.5	2071
Clc1cccc(Cl)c1CSc1cc2c(nn1)-c1ccccc1CC2	0	3	-1	-35	4	-9.4	22710*
COc1ccc(C(=O)Nc2ccnn2C2CCN(Cc3ccc4nonc4c3)CC2)cc1	12	5	5	5	0	1.2	6180

(further entries)
Compound	Mtb hypoxia inh growth	Sa ugtP lethal	Mtb hypoxia inh	PrP 5UTR inh	BJeLR lethal	Sa RN4220 lethal	Autofluor counter
O=C(CSc1ncc(C(F)(F)F)cc1Cl)N1CCN(S(=O)(=O)c2ccc3ccccc3c2)CC1	7	1	9	-24	-4	2.8	10475
COc1cc(/C=N/n2c(-c3ccc4c(c3)NC(=O)CO4)csc2=Nc2cccc(C)c2)ccc1O	nt	nt	nt	-11	-17	nt	2039
Cc1nc(-c2ccc(NC(=O)/C=C\C(=O)O)cc2)cs1	-3	-1	2	-20	8	4.3	4757
Cc1cc(C)nc(NC(=O)CN2C(=O)c3ccccc3C2=O)n1	-2	16	0	-3	-1	3.7	?
O=C(O)CC1(CC(=O)Nc2cc(C(F)(F)F)cc(C(F)(F)F)c2)CCCCC1	-3	16	0	-46	14	33	4038
Cc1c(Br)c([N+](=O)[O-])nn1CC(=O)NCC1CCCO1 (stereo not given)	2	-9	0	-14	4	-1.9	4378
C/C(=N/NC(=O)c1ccc(Br)o1)c1cccc(NC(=O)c2ccc(C)o2)c1	nt	nt	nt	-77	11	nt	2057
COc1cc(NC(=O)c2ccccc2)c(OC)cc1NC(=O)CN1CCCCC1	13	3	18	-19	0	1.3	2401
COc1ccccc1-c1nc(-c2ccccc2)nc(N2CCN(C)CC2)c1C#N	2	20	-7	-22	1	-1.7	5129

Retrieved by structure from the list above (2):
Compound	Mtb hypoxia inh growth	Sa ugtP lethal	Mtb hypoxia inh	PrP 5UTR inh	BJeLR lethal	Sa RN4220 lethal	Autofluor counter
O=C(CSc1ncc(C(F)(F)F)cc1Cl)N1CCN(S(=O)(=O)c2ccc3ccccc3c2)CC1	7	1	9	-24	-4	2.8	10475
Cc1cc(C)nc(NC(=O)CN2C(=O)c3ccccc3C2=O)n1	-2	16	0	-3	-1	3.7	?
